eIF4H FP inh: inhibitors of RNA binding by human eIF4H; eIF4H fluorescence polarization binding assay; inhibition, % at 35 µM; Q15056; actives 0.94% (n = 290,000); AID 2012;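 active = 50% or more with normal probe brightness, or confirmed in later tests; about a fifth of its hits are not listed in these tables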;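 also: calls also rest on retests at 20 µM and on dose response follow-up; 0% = protein and probe with vehicle and 100% = probe without protein; strong numbers were not always called active; many hits fall short of the cut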
Yeast UUG start: alters start codon recognition fidelity in yeast; S. cerevisiae UUG-firefly luciferase reporter, luminescence/redox ratio; activity score, % at 18.7 µM; actives 0.13% (n = 350,000); AID 602363;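 active = replicate mean at a twofold rise or more, about +100% in these data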;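 also: firefly luciferase made from a UUG start codon reports start codon fidelity; reporter light over untreated wells divided by growth signal over untreated wells; some hits fall short of that in this replicate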
PABP FP inh: PABP-poly(A) binding inhibition; P11940; PABP-poly(A) RNA binding, fluorescence polarization; inhibition, % at 35 µM; actives 1% (n = 290,000);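 active = 50% or more with normal probe brightness, or confirmed in later tests; about a fifth of its hits are not listed in these tables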;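 also: calls also rest on retests at 20 µM and on dose response follow-up; controls were probe without protein and protein plus probe with vehicle; some compounds called inactive have numbers as strong as hits; many hits fall short of the cut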
Target sequence (P11940 whole entry, looked up): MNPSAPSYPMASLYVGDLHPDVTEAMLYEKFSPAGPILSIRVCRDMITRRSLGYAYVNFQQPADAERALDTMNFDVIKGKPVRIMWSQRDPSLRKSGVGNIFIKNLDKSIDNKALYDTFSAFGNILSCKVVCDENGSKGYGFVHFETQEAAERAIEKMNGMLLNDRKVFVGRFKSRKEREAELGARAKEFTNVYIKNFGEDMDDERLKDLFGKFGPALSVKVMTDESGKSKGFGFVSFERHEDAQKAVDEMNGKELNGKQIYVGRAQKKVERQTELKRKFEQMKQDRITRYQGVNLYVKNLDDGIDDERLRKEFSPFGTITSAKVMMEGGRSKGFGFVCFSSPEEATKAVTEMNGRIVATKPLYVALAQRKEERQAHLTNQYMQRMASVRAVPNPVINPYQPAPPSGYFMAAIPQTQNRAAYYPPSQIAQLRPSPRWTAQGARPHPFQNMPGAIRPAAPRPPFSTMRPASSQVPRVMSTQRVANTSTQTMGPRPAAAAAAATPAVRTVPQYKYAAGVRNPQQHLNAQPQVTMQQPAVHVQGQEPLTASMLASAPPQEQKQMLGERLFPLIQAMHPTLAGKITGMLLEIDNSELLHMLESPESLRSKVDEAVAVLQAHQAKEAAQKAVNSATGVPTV
Env fusion inh: inhibitors of HIV Env-mediated cell fusion; HeLa-JRFL Env/CEM21 cell fusion, luciferase; inhibition, % at 12.3 µM; actives 1.1% (n = 360,000);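 active = mean replicate inhibition score of at least 50 and every replicate individually at or above 50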;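 also: 0% = plate neutral controls and 100% = maraviroc near 300 nM; one replicate is shown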
Rce1 inhib: blocks yeast Ras-converting enzyme. Q03530. yeast membranes, quenched prenylated peptide cleavage fluorescence. calls only. actives 0.27% (n = 290,000). AID 2563;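 active = fall in fluorescence gain of 50% or more versus controls, with final raw signal at or below 3038400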;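 also: plate controls were neutral control wells for no effect and wells lacking membranes for full effect; tested at 10 µM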
CSC inhib: blocks cancer stem cells | actives 1.1% (n = 300,000) | cancer stem cell-like cells viability, luminescence | inhibition, % at 7.5 µM | AID 2717;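 active = mean at 75% or more and at least half the replicates too; tested in HMLE shEcad cells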;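 also: 0% = median of negative and 100% = median of positive control wells; the first replicate is given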
MT1-MMP act inh: inhibitors of human MT1-MMP activation; HT1080 RFP-PRO-GFP cells, GFP/RFP ratio fluorescence, overnight; percent of plate control window, DMSO zero; GFP/RFP ratio change, % at 20 µM; actives 0.061% (n = 360,000);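 active = GFP/RFP ratio change of at least 30% with cell ATP level not reduced by more than half and red fluorescence within 50% of control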; also: strong numbers were not always called active
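Assay system: HT1080 RFP-PRO-GFP cells. Benchmarks: DMSO vehicle wells and RFP-L50D-GFP reporter cell wells. Times: overnight cell settling, then overnight compound exposure, 37 °C, 5% CO2. Compound: 20 µM single dose, 1% DMSO. Read-out basis: GFP/RFP fluorescence ratio.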
eIF4H FP inh retest: recorded beside eIF4H FP inh, whose call it bears; inhibition, %; compound at 20 µM; confirmation average;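 mean of two retest wells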
PABP FP inh retest: also measured in PABP FP inh; calls as there; inhibition, %; compound at 20 µM; confirmation repeats;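 mean of two retest wells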
MT1-MMP act inh RFP: second read-out of MT1-MMP act inh, no call of its own (marks repeat the call); RFP signal change, %; measured here: RFP expression control read;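 0 = vehicle wells; hits needed this value within 50% of zero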
* marks the source's active call; other numbers are inactive results; i = inactive; / = no result given; & = joins results of further samples; [ ] = dose if it differs, or a comment.

SMILES	eIF4H FP inh	Yeast UUG start	PABP FP inh	Env fusion inh	Rce1 inhib	CSC inhib	MT1-MMP act inh	MT1-MMP act inh RFP	others
CCCn1c(-c2ccncc2)n[nH]c1=S	-4	/	-8	-12	i	-2	-2	-1
O=C(O)c1ccccc1C(=O)c1ccc2c(c1)N(Cc1cccc(F)c1)C(=O)CO2	-16	/	-4	19	i	-2	2	-2
Cc1cc(OCc2nnc(SCC(=O)OC3CCCCC3)o2)ccc1Cl	3	/	3	-23	i	-4	1	3
NS(=O)(=O)c1ccc(NC(=O)COc2ccc(Cl)cc2)cc1	-12	-13	-6	7	i	2	2	2
Brc1cc(Br)c2ncnc(N3CCCCC3)c2c1	-4	-8	-2	/	i	84*	-1	-27
CCc1nc(CN(C)C(=O)C2CCC(=O)N(Cc3cccc(F)c3)C2)no1 (stereo not given)	-8	-23	2	8	i	-8	3	7
COC(=O)[C@@]1(Cc2ccccc2)[C@H]2C(=O)N(Cc3ccccc3)C(=O)[C@H]2[C@H]2CN=C(SCC(=O)c3ccccc3)N21	/	-2	/	16	/	/	0	-8
O=C(NC1CCN(C(=S)NCCc2ccccc2)CC1)C1CCCCC1	-8	/	15	-5	i	-9	1	0
COc1ccccc1NC(=O)C1=C(C)NC(=O)NC1c1cc(C)cs1 (stereo not given)	1	-1	56*	-12	i	-6	-3	5	eIF4H FP inh retest=48;PABP FP inh retest=84*
COc1cccc(CN(C)C(=O)c2cccc(NC(=O)CC3SC(N4CCCCC4)=NC3=O)c2)c1OC (stereo not given)	/	22	/	-2	/	/	-1	-3
C[C@H]1CN([C@@H](C)CO)C(=O)c2cc(Br)cnc2O[C@H]1CN(C)C(=O)C1CC1	/	-4&-2&3	/	-41&-3[16.7 µM]	/	/	0	5
COc1ccc(CCNC(=O)C(=O)NCC2CCCO2)cc1OC (stereo not given)	-5	8	-10	-14	i	-5	3	8
O=C(NC1C2CC3CC(C2)CC1C3)C1CC1 (stereo not given)	-7	-2	-5	-29	i	1	-1	0
C=CCOC(=O)N1CCC2CC1c1c(-c3ccc(C(F)(F)F)cc3)cccc12 (stereo not given)	/	4	/	8	/	/	0	-4
Cc1ccc(Oc2nc3c(c(=O)n(C)c(=O)n3C)n2C)cc1C	3	/	4	15	i	-6	-4	-5
Cc1ccc(C)c(NC(=O)CSc2nc(N)c(NC(=O)c3cccs3)c(=O)[nH]2)c1	-12	-18	14	-9	/	/	1	6
COCCn1c(Cc2ccccc2)nnc1SCC(=O)NC1CC1	7	-20	4	1	i	-1	-3	1
O=C(CCN1CCCCC1=O)NC1CCCN(Cc2ccc(Cl)cc2)C1 (stereo not given)	4	9	7	10	i	-13	-3	-1
CCn1c(=O)oc2cc(NC(=O)CCl)ccc21	-6	/	5	9	i	-12	5	-4
CN1CCN(S(=O)(=O)c2cccc(C(=O)Nc3ccc(Br)cc3Br)c2)CC1	-1	4	10	32	i	7	-1	-7
O=C(Cc1ccc(Br)cc1)OCC(=O)N1CCc2ccccc2C1	4	1	-6	-66	i	-10	2	4
CC(C)(C)c1ccc(Cn2nc(CC(=O)O)c3ccccc3c2=O)cc1	4	7	0	6	i	-17	-1	-1
CC(=O)c1cccc(NC(=O)c2ccc(N(C)S(=O)(=O)c3ccc(C)cc3)cc2)c1	4	2	0	4	/	5	2	-8
C/C(CC(=O)Nc1ccc([N+](=O)[O-])cc1)=N/NC(=O)C1C2CCCCC21 (stereo not given)	9	-7	-4	19	i	-21	1	2
O=C(CC1SC(N2CCOCC2)=NC1=O)Nc1ccc(Cl)c(C(F)(F)F)c1 (stereo not given)	/	-10	/	/	/	-14	-3	-4
COc1cc(/C=C/C(=O)O)ccc1OS(=O)(=O)c1cc(C)ccc1C	3	-4	10	3	i	6	-2	0
CCOC(=O)C1CCCN(C(=O)Cc2ccc(C)cc2)C1 (stereo not given)	2	-4	0	-15	i	-12	-3	-6
O=C(CC(c1ccccc1)c1ccccc1)NCCOCc1ccccc1	-1	-19	3	9	i	-5	0	-3
COc1ccc(OCC(=O)Nc2cc(S(=O)(=O)N3CCCCC3)ccc2OC)cc1	/	1	/	14	i	-7	5	-8
COc1ccc(CNC(=O)COc2cc3c(c4oc(=O)cc(C)c24)CCC(C)(C)O3)cc1OC	6	11	-2	/	i	-13	-1	-7

Entries shown so far with a CF3 group:
SMILES	eIF4H FP inh	Yeast UUG start	PABP FP inh	Env fusion inh	Rce1 inhib	CSC inhib	MT1-MMP act inh	MT1-MMP act inh RFP	others
C=CCOC(=O)N1CCC2CC1c1c(-c3ccc(C(F)(F)F)cc3)cccc12 (stereo not given)	/	4	/	8	/	/	0	-4
O=C(CC1SC(N2CCOCC2)=NC1=O)Nc1ccc(Cl)c(C(F)(F)F)c1 (stereo not given)	/	-10	/	/	/	-14	-3	-4

Additional records.
SMILES	eIF4H FP inh	Yeast UUG start	PABP FP inh	Env fusion inh	Rce1 inhib	CSC inhib	MT1-MMP act inh	MT1-MMP act inh RFP	others
CC(C)Cn1c(Cc2ccccc2)n[nH]c1=S	1	-1	-3	/	i	-11	1	0
CCC1CSC(=Nc2ccc(C)cc2)N1C(=O)CN1C(=O)NC2(CCCC2)C1=O (stereo not given)	-7	-4	-4	-7	i	5	5	0
Cc1ccc(C(=O)NC2(C(F)(F)F)N=C3SCCN3C2=O)cc1 (stereo not given)	6	-24	5	/	i	-10	9	9
CC(=O)NC1C(=O)N=C(SCc2ccccc2)NC1=O (stereo not given)	0	/	-6	-43	/	-18	2	6
Cc1cccc(NC(=O)c2ccc(F)c(S(=O)(=O)NCc3ccco3)c2)c1	-14	-18	3	10	i	3	-1	-5
CC(=O)/C(=N/Nc1ccccc1)N1CCOCC1	-20	-2	0	13	i	7	0	1
COCCCNC(=O)/C=C/[C@H]1O[C@@H](n2cnc3c(NC(=O)c4ccccc4)ncnc32)[C@H](O)[C@@H]1O	/	-1	/	4	/	/	1	4
C=CCOc1ccc2c(OC)c3ccoc3nc2c1OC	5	2	-5	-106	i	-11	8	0
O=C(Nc1nccs1)c1ccc(NC(=O)c2ccco2)cc1	2	-24	-5	-78	i	15	3	-1
COc1ccccc1-c1nc(C(F)(F)F)c(OC)o1	5	-17	4	/	i	-6	6	8

As a working copy, 6 of the compounds above:
SMILES	eIF4H FP inh	Yeast UUG start	PABP FP inh	Env fusion inh	Rce1 inhib	CSC inhib	MT1-MMP act inh	MT1-MMP act inh RFP	others
CC(C)Cn1c(Cc2ccccc2)n[nH]c1=S	1	-1	-3	/	i	-11	1	0
CCC1CSC(=Nc2ccc(C)cc2)N1C(=O)CN1C(=O)NC2(CCCC2)C1=O (stereo not given)	-7	-4	-4	-7	i	5	5	0
Cc1ccc(C(=O)NC2(C(F)(F)F)N=C3SCCN3C2=O)cc1 (stereo not given)	6	-24	5	/	i	-10	9	9
CC(=O)NC1C(=O)N=C(SCc2ccccc2)NC1=O (stereo not given)	0	/	-6	-43	/	-18	2	6
Cc1cccc(NC(=O)c2ccc(F)c(S(=O)(=O)NCc3ccco3)c2)c1	-14	-18	3	10	i	3	-1	-5
CC(=O)/C(=N/Nc1ccccc1)N1CCOCC1	-20	-2	0	13	i	7	0	1

Next section:
SMILES	eIF4H FP inh	Yeast UUG start	PABP FP inh	Env fusion inh	Rce1 inhib	CSC inhib	MT1-MMP act inh	MT1-MMP act inh RFP	others
COc1cccc(CN2CCN(Cc3nc(-c4cccs4)oc3C)CC2CCO)c1 (stereo not given)	13	-4	-3	-1	i	-19	-11	-3
Cc1nonc1NC(=O)c1ccccc1Br	9	6	8	/	i	-4	-3	-2
CC(C)(C)c1ccc(C(=O)NC(=O)COC(=O)c2ccco2)cc1	/	6	/	-149	/	/	0	3
Cc1ccc(OCC(=O)Nc2sc3c(c2C#N)CCC3)cc1C	8	-20	3	-59	i	5	-1	2
C#CCONC(=O)c1cc(OCC(F)(F)F)ccc1OCC(F)(F)F	-4	-9	6	-48	i	-4	0	-3
CCOC1=C2[C@@H](CN(S(=O)(=O)c3ccc(C)cc3)[C@H]2c2ccccc2F)[C@H]2C(=O)N(C3CCCCC3)C(=O)[C@H]2C1	/	-9	/	14	/	/	-3	-10
CC1=NN(C(=O)c2ccc(Cn3cc([N+](=O)[O-])cn3)cc2)C(O)(C(F)(F)F)C1 (stereo not given)	-4	/	116	7	i	-1	-1	-1	eIF4H FP inh retest=2;PABP FP inh retest=-5
Oc1[nH]c2ccccc2c1N=Nc1c(F)c(F)c(Cl)c(F)c1F	-1	-5	-17	-37	i	-8	-1	1
Cn1c(Cl)cnc1C1CC(=O)c2cc(Cl)ccc2O1 (stereo not given)	0	-5	2	-258	i	46	12	-9
COc1cc2cc(CN(Cc3cccnc3)C(=O)NCc3ccccc3)c(=O)[nH]c2cc1OC	-2	-6	-1	/	i	-12	-1	1
COc1cccc(NC(=O)c2sc3ncn(CC(=O)N4CCN(c5ccccn5)CC4)c(=O)c3c2C)c1	-12	8	4	-5	i	-7	6	1
COc1ccccc1C(=O)Nc1ccc(C2=NNC(=O)CC2C)cc1 (stereo not given)	-3	/	33	1	i	27	3	-1
COc1ccc(NC(=S)N2CCN(c3ccccc3)CC2)c(OC)c1	-7	-23	-4	4	i	-4	5	-1
O=C1OC(/C=C/c2ccccc2)=NC/1=C/c1ccco1	77	-12	17	21	i	5	-2	11	eIF4H FP inh retest=4;PABP FP inh retest=5
Cc1ccc(N(C(=O)c2csnn2)C(C(=O)NC2CCCCC2)c2ccncc2)c(C)c1 (stereo not given)	-7	-5	-7	3	i	-9	1	2
CC1CCCCC1NC(=O)COC(=O)COc1ccccc1Cl (stereo not given)	5	/	11	1	i	-1	5	2
COc1ccc(/C=C/C(=O)OCC(=O)NCc2ccco2)cc1OC	23	-2	-2	-17	i	0	8	3
COc1ccc(N2CCN(C(CNC(=O)COc3ccccc3)c3ccco3)CC2)cc1 (stereo not given)	/	-4	/	16	i	3	1	-11
O=C(c1ccco1)N1CCN(S(=O)(=O)Cc2ccc(Cl)cc2)CC1	4	/	1	-6	i	-4	1	1
CCOC(=O)c1[nH]c2ccccc2c1NC(=O)CCN1CC(C)OC(C)C1 (stereo not given)	3	-15	-3	13	i	-14	-2	4
O=C(CCCn1cncn1)N1CCCC(Nc2ccc(F)cc2)C1 (stereo not given)	-6	-13	4	/	i	-7	2	3

Screening results from PubChem BioAssay.

Compounds as they come; about 2.9% have a hit in one of these screens.
